Source: PubChem
Sfp PPTase inh: inhibitors of Bacillus subtilis Sfp phosphopantetheinyl transferase; Biochemical Sfp PPTase activity, qHTS; Potency, µM, inactives show max response, negative = inhibition, usual class: inhibitors; Q9F4F7; AID 1490; 310,000 tested, 3.5% active; active = well fitted inhibition curve with a large enough effect; inconclusive = small, poorly fitted or top-dose-only effect, or another doubt; inactive = no such curve, though single readings can be large or run the other way;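 note: the enzyme is Sfp with the accession as filed and its product quenches rhodamine fluorescence; potency is the fitted concentration of half-maximal effect; 0% = enzyme reaction without inhibitor and -100% = no enzyme wells; top concentration of the series not given in the record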
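Fluorescence-quenching assay: 15 nM Sfp-PPTase preincubated 15 min at room temperature with compound, then 5 uM rhodamine-CoA and 12.5 uM BHQ-2-labelled YbbR peptide added. Fluorescence (ex 525/em 598 nm) read at start and after 30 min; difference gives rate.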
D2 ag: human D2 receptor agonism in beta-arrestin assay | P14416 | DiscoveRx PathHunter D2 beta-arrestin, luminescence, 90 min; 100% = 57 uM dopamine signal | activation, % (concentration not given with the values) | 360,000 tested, 0.084% active | AID 624465; in the data active = activation above about 40%; inconclusive = about 15% to 40%; inactive = below about 15%; note: compound concentration not given in the record; the text of the record calls up to 30% inactive
Target sequence (P14416 whole entry, looked up): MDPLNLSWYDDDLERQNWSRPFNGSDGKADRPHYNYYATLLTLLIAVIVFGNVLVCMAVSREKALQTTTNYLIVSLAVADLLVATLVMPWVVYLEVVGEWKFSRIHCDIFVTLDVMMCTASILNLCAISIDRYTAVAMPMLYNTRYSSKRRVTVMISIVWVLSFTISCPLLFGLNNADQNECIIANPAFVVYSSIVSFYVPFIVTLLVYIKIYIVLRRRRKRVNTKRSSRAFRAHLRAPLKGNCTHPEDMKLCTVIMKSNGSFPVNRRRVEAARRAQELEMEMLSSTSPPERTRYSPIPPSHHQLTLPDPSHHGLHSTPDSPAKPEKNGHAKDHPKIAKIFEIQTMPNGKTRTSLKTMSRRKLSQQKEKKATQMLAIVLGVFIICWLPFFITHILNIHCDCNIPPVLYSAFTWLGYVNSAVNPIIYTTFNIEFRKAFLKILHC
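DiscoveRx PathHunter D2 beta-arrestin cells (2,100/well) attached overnight, then compound-stimulated 90 min at 37 C in HBSS/10 mM HEPES/0.1% Tween-20 buffer; beta-galactosidase complementation read by luminescence after 1 h at ambient temperature. Dopamine 57 uM final (EC100) as control.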
CtBP-E1A inh: blocks the CtBP interaction with E1A; AlphaScreen GST-E1A/His-CtBP binding, 1536-well; active compounds read low; control for the full effect not named in the record; activity change, % (concentration not given with the values); 340,000 tested, 0.49% active; in the data active means activity change below about -65%; inconclusive means about -30% to -65%; inactive means above about -30%; note: % is set by controls: 0 for no effect and ±100 for the full control effect
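Protein mix (5X: 125 nM each GST-E1A, His-CtBP) was incubated with pinned compound 2 h at 37 deg C in dark, in 50 mM Tris pH 8.0 buffer with 300 mM NaCl. Glutathione donor and nickel acceptor beads followed; AlphaScreen signal read after 1 h.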
PINK1 modulator: PINK1 expression modulation; 410,000 tested, 0.2% active; PINK1 immunofluorescence, high-content cytometry, 24 h; Potency, µM (highest dose often 76.6 µM), for the others: at the highest dose activation (PINK1 increase), hits mostly activators; active = well fitted activation curve with a large enough effect; inconclusive = small, poorly fitted or top-dose-only effect; inactive = flat fitted curve, though single readings scatter; cell line not stated here;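 note: potency is the fitted concentration of half-maximal effect; % of control where 0% means no effect; nearly all actives have a fitted effect of over 65% in size; a mitochondrial uncoupler was the plate control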
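A stable cell line was treated with compounds at 5 concentrations for 24 hours, with CCCP as control. PINK1 levels and mitochondrial localization were measured by immunofluorescence with mitochondrial, cell and nuclear markers after fixation, read by laser-scanning cytometry.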
Six1-Eya2 blk: blocks human Six1 binding to Eya2; Q15475+O00167; AlphaScreen GST-Six1/His-Eya2 binding, biochemical; active compounds read low; control for the full effect not named in the record; activity change, % (no concentration beside the values); 360,000 tested, 0.56% active; AID 651725; in the data active = activity change below about -65%; inconclusive = about -30% to -65%; inactive = above about -30%; note: % is set by controls: 0 for no effect and ±100 for the full control effect
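GST-Six1 + His-Eya2 (5X stock: 250/500 nM); Tris pH 8.0, 300 mM NaCl, 0.05% BSA, 0.02% Tween 20; GSH donor/Ni acceptor beads; 1 h 37 °C dark; AlphaScreen readout.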
D2 potentiator: potentiates the human D2 dopamine receptor allosterically | P14416 | DiscoveRx D2 beta-arrestin cells, luminescence, 90 min; 100% = 57 uM dopamine signal | potentiation, % (concentration not given with the values) | 360,000 tested, 0.23% active | AID 624464; active = potentiation of 50% or more; inconclusive = 30% to 50%; inactive = 30% or less;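 note: compound concentration not given in the record; tested on top of an EC20 dose of dopamine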
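D2 cells co-treated with compound plus 50 nM dopamine (EC20) for 90 min at 37 deg C to detect potentiation. Beta-arrestin recruitment was read as enzyme-fragment luminescence after 1 h at ambient temperature. Full response was set by 57 uM dopamine.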
TRPV1 potentiator: enhances activation of the human vanilloid receptor TRPV1 | potentiation, % at 8.33 µM | Q8NER1 | TRPV1-expressing cells, Fluo-8 calcium influx, capsaicin EC20 potentiation; host cell line not named in the record; control for the full effect not named in the record | 320,000 tested, 0.02% active; active means potentiation above 80%; inconclusive means 30% to 80%; inactive means below 30%; note: 0% is about no effect
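Cells expressing TRPV1 were dye-loaded with Fluo-8 and read kinetically: 10 s baseline, 3 min after compound (agonist portion), then 2 min after EC20 capsaicin (allosteric enhancer portion). Calcium-bound dye fluorescence at 480/520 nm.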
Numbers without * were called inactive; ? = inconclusive; nt = not tested or not shown; [ ] = another dose, or the depositor's remark.

molecule	Sfp PPTase inh	D2 ag	CtBP-E1A inh	PINK1 modulator	Six1-Eya2 blk	D2 potentiator	TRPV1 potentiator
O=C(O)C1CSC2(CCN(Cc3ccccc3)CC2)N1 (stereo not drawn)	50.1µM*	1.9	-6.2	3.0%[38.3 µM]	-2.8	-8.5	6.6
O=C(NCc1ccccc1Cl)c1ccc(S(=O)(=O)N2CCCC2)cc1	nt	-0.9	-1.3	-0.6%	7.2	12.6	-29.0
CC(=O)c1cc2c(cc1NC(=O)CN(C)S(=O)(=O)c1cccs1)OCO2	nt	-0.6	-1.8	6.9%	-1.2	0.7	nt
COCCN1Cc2cccc(C(=O)N3CCN(c4cc(C)ccc4C)CC3)c2C1=O	-16.7%	-2.6	9.0	0.8%	-2.2	-4.8	-7.6
N#Cc1ccccc1NC(=O)CC1c2ccccc2Oc2ccccc21	18.5%	-0.8	-11.0	16.3%	1.8	-7.4	-17.3
COc1ccc(Cn2ccnc2CO)cc1[N+](=O)[O-]	-3.9%	0.8	1.1	2.3%	-1.3	-2.7	-9.5
CCN(c1ccccc1)S(=O)(=O)c1ccc2[nH]c(=O)c(=O)[nH]c2c1	21.7%	-6.4	4.5	1.6%	1.1	-4.4	-9.6
O=C(Nc1cccc2ccccc12)C(=O)C1C(=O)Nc2ccccc21 (stereo not drawn)	4.4%	-3.5	0.7	1.0%	-2.8	-4.2	0.4
O=C(O)C(=Cc1ccccc1[N+](=O)[O-])c1ccc2c(c1)OCO2	nt	-1.7	-0.3	-0.9%	0.9	-11.4	nt
Cc1ccc(CC2S/C(=C(/C#N)C(=O)N3CCOCC3)N(c3ccccc3)C2=O)cc1 (stereo not drawn)	13.4%	-1.4	2.6	-3.5%	1.9	6.3	5.1
Cc1c(C2(O)CCCCC2)[nH]c2ccc(C#N)cc12	nt	-1.3	-19.8	3.3%	6.4	-8.3	nt
CCS(=O)(=O)c1ccc2c(c1)N(S(=O)(=O)c1ccccc1)CC(C(=O)O)O2 (stereo not drawn)	13.2%	-1.8	1.7	1.4%	6.3	2.0	-0.2
O=C(CN1CCN(S(=O)(=O)c2cccs2)CC1)N1CCCCC1	nt	0.9	0.1	-0.5%	0.7	-2.7	-1.6
CN(CC(=O)Nc1c(Cl)cccc1Cl)CC(=O)N(C)C1(C#N)CCCCC1	nt	-0.5	3.9	-1.9%	6.3	-5.1	nt
COc1ccc(OC)c(C2=NS(=O)(=O)N(C)C(C(=O)Nc3cccc(C(C)=O)c3)=C2)c1	17.8%	-3.6	-11.4	0.9%	-8.1	-9.6	18.7
CC1C(=O)N2CCCc3cc(S(=O)(=O)Nc4ccccc4F)cc1c32 (stereo not drawn)	nt	-5.1	8.0	0.0%	-2.4	-0.5	14.6
O=C(Nc1cccs1)Nc1c(F)c(F)cc(F)c1F	44.7µM*	-1.3	10.5	-1.2%	1.6	2.0	4.1
CN(CCc1cn[nH]c1)Cc1nc(Cc2ccccc2F)no1	1.1%	-0.9	8.7	3.1%	7.4	-0.2	2.8
CCn1ncc(-c2cc(C(=O)O)no2)c1C	20.5%	-6.8	3.1	-0.9%	13.1	2.2	-2.4
Cc1cccc([N+](=O)[O-])c1C(=O)O	nt	-1.9	7.3	0.3%	-2.0	-3.4	-2.0
C[C@H]1CN([C@@H](C)CO)C(=O)CCCn2nncc2CO[C@@H]1CN(C)C(=O)c1ccc2ccn(C)c2c1	nt	-2.5	5.8	-1.6%	3.7	9.1	nt
Cc1c(CC(=O)N[C@@H](C)C(=O)O)c(=O)oc2cc3oc4c(c3cc12)CCCC4	8.8%	-2.4	-3.3	-0.2%	-3.5	3.0	15.7
C/C(=N\NC(=O)c1ccccc1NC(=O)c1ccc(Cl)cc1)c1ccncc1	17.1%	-2.3	-19.0	5.3%	-18.9	-4.4	-1.5
O=c1c(Oc2ccccc2Br)c(C(F)(F)F)oc2c(CN3CCCC3)c(O)ccc12	12.9%	-2.8	1.1	1.3%	1.0	-8.6	19.6
C[N+]12CCCCC1C(COC(=O)c1ccc3c(c1)OCO3)CCC2 (stereo not drawn)	7.2%	-0.6	1.0	14.6%[38.3 µM]	2.7	-9.2	-10.5
CCn1c(SCC(=O)NNC(=O)c2ccc(OC)cc2)nnc1-c1ccco1	2.1%	-1.4	5.5	0.4%	1.8	-0.6	2.4
CCN(CC(=O)Nc1c(F)cccc1F)C(=O)c1cccc(-n2cnnn2)c1	nt	-4.8	5.2	0.1%	0.8	-7.8	-3.2
CCOC(=O)C1=NN(c2ccc(C)cc2)C2(S1)SC(C(C)=O)=C(C)N2c1ccccc1 (stereo not drawn)	-10.8%	-3.4	-17.9	-2.0%	-6.4	-16.1	-4.4
O=C1C=C(c2cccc3c2Oc2ccccc2S3)C[C@@H](c2ccc(Cl)cc2)C1	nt	-1.7	-2.5	0.9%	0.2	-3.5	-0.8
COc1cc(Cl)ccc1OCc1cc(C(=O)N2C[C@H]3CC[C@H]2C3)no1	8.8%	-4.3	12.9	-2.0%	4.6	-14.0	1.6
O=C(CCn1cnnn1)Nc1ccc(Cl)c(Cl)c1	6.6%	0.8	4.9	4.7%	-0.8	-11.9	0.0
C#CCNC(=O)C1=C[C@H](C(C)(C)C)C[C@H](OCc2ccc(CO)cc2)O1	-6.4%	-0.6	2.6	-1.0%	0.3	-2.3	-20.1
Cc1ccc([N+](=O)[O-])cc1Nc1nc(N2CCOCC2)nc(N2CCOCC2)n1	-6.1%	-3.8	-0.4	0.9%	12.5	-5.2	-5.4
CC(C)(C)NC(=O)CN(CCN1CCOCC1)C(=O)CNS(=O)(=O)c1ccc(Cl)cc1	4.6%	-6.5	1.4	1.5%	1.3	-4.8	11.4
C[N+](C)(C)CCCN1C(=O)CCCC1=O	-24.9%	-2.7	1.6	-1.0%	7.3	-0.9	19.7
COc1ccc(-c2nc(N)ncc2-c2ccccc2OC)c(O)c1	-2.4%	7.3	-24.5	-3.0%	-11.5	-4.8	16.4
C[C@H]1CN([C@@H](C)CO)S(=O)(=O)c2ccc(Br)cc2O[C@H]1CN(C)C(=O)Nc1ccccc1F	nt	-11.7	-5.5	1.9%	-15.6	-1.2	nt
CC(Sc1n[nH]c(=O)[nH]c1=O)C(=O)OCc1ccccc1 (stereo not drawn)	79.4µM*	1.7	4.4	-1.4%	-1.1	-8.3	2.7
CCOC(=O)CNC(=O)COc1coc(CN2CCN(Cc3ccccc3)CC2)cc1=O	9.4%	-3.5	nt	13.2%	2.8	-4.6	24.9
Cc1ccc(S(=O)(=O)NCc2csc(C)n2)c(C)c1	9.3%	-0.8	3.7	-0.8%	1.8	1.3	-0.7
COCCCNC(=O)c1c(NC(=O)C2COc3ccccc3O2)sc2c1CCCC2 (stereo not drawn)	-8.1%	-3.5	7.8	7.8%	2.5	-5.2	-3.5
CCNC(=O)Nc1ccc2c(c1)c(=O)n(C)n2Cc1ccc(Cl)cc1	nt	9.3	-0.3	1.2%	-2.0	5.7	nt
CCOC(=O)C1CCCN(c2c(NCCC(C)C)c(=O)c2=O)C1 (stereo not drawn)	19.2%	0.8	-9.6	-1.5%	2.8	-2.1	-4.4
O=C(NCC1CCCCC1)c1cc([N+](=O)[O-])ccc1N1CCOCC1	14.4%	-6.4	-2.6	?	0.6	-26.5	-13.5
CCOC(=O)C1=NNC2C(=O)N(Cc3ccccc3)C(=O)C12 (stereo not drawn)	5.0%	-1.4	5.8	1.1%	9.5	-5.8	-9.9
COc1ccc(Cl)cc1NC(=O)c1cc(C)no1	7.2%	-1.7	10.1	4.7%	-2.0	-5.4	-2.6
O=C1CSC(=S)N1N=Cc1ccc(Cl)cc1Cl	nt	4.3	?	0.7%	?	1.9	nt
CCCC/C(O)=C1\C(=O)CCCC1=NCCc1c(C)[nH]c2ccc(OC)cc12	14.1%	1.9	-17.5	4.2%	-14.6	-2.3	-2.8
CN(C)c1ccc(-c2noc(-c3ccccc3O)n2)cc1	14.6%	-2.2	4.3	1.5%	0.5	20.8	3.9
O=C(O)c1cc(=O)[nH]c2c(Cl)cccc12	15.6%	-3.4	nt	-1.9%	0.2	-23.6	2.0

New compounds follow
molecule	Sfp PPTase inh	D2 ag	CtBP-E1A inh	PINK1 modulator	Six1-Eya2 blk	D2 potentiator	TRPV1 potentiator
O=C(Oc1ccccc1C(=O)N1CCOCC1)c1cccc(Br)c1	0.3%	-0.1	22.0	-2.7%	?	-12.0	-23.9
O=C(CCc1nc2ccccc2c(=O)[nH]1)NNC(=O)c1ccc(Cl)cc1	nt	-1.4	-7.1	4.2%	-0.9	1.8	-2.8
Cc1onc(C(=O)N2CCN(C(c3ccccc3)c3ccccc3)CC2)c1[N+](=O)[O-]	20.4%	-4.6	-12.2	0.1%	-13.7	-2.5	0.0
O=C(N/N=C/c1c[nH]c2ccccc12)c1cc(Cl)ccc1O	10.4%	-3.5	-22.9	0.5%	?	-18.7	-15.9
O=C(CCN1C(=O)NC2(CCCC2)C1=O)Nc1cccc(S(=O)(=O)N2CCOCC2)c1	nt	7.2	2.4	1.6%	6.4	1.1	2.9
Cc1nc(-c2ccc(Cl)cc2)sc1C1(C)CC(c2ccccc2)=NO1 (stereo not drawn)	nt	-0.4	10.2	0.1%	2.7	-9.7	nt
CC1CCCN(c2oc(-c3cccc4ccccc34)nc2C#N)C1 (stereo not drawn)	6.6%	-3.0	11.4	?	-0.2	-8.9	-1.7
CC(=O)C1=C(C)NC(SCC(=O)c2ccc(Cl)cc2)=C(C#N)C1CC(C)C (stereo not drawn)	12.6µM*	-5.1	-10.6	-0.5%	6.0	-10.9	-9.7
CC(C)C[C@H]1CNC(=O)C(=O)N1C[C@@H]1CCCN1C[C@H](CC(C)C)N1C[C@H](Cc2ccc(O)cc2)N(CCc2ccccc2)C(=O)C1=O	nt	nt	3.1	1.0%	0.6	nt	nt
O=C(Cn1c(=O)[nH]c2ccccc2c1=O)Nc1ccc2c(c1)OCCO2	17.6%	-4.5	nt	2.7%	3.4	-10.5	-7.4
